Yeast UUG start = modulators of start codon recognition fidelity in yeast. S. cerevisiae UUG-firefly luciferase reporter, luminescence/redox ratio. activity score, % at 18.7 µM. 0.13% of 350,000 active;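 active = replicate mean at a twofold rise or more, about +100% in these data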;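 also: firefly luciferase made from a UUG start codon reports start codon fidelity; reporter light over untreated wells divided by growth signal over untreated wells; some hits fall short of that in this replicate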
HIV Env fusion = HIV envelope-mediated fusion inhibition; HeLa-JRFL Env/CEM21 cell fusion, luciferase; inhibition, % at 12.3 µM; 1.1% of 360,000 active;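 active = mean replicate inhibition score of at least 50 and every replicate individually at or above 50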;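 also: 0% = plate neutral controls and 100% = maraviroc near 300 nM; one replicate is shown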
Active calls of the source: *; [ ] = another dose, or the depositor's remark. An excerpt, so the mix of outcomes need not match the whole.

SMILES	Yeast UUG start	HIV Env fusion
O=C(C[C@H]1C[C@H]2c3cc(NC(=O)CC4CC4)ccc3O[C@H]2[C@H](CO)O1)NCc1cc(F)ccc1F	-7.5	13.7[16.7 µM]
COc1ccc(C#Cc2ccc3c(c2)O[C@@H](CN(C)S(=O)(=O)c2ccccc2F)[C@@H](C)CN([C@@H](C)CO)S3(=O)=O)cc1	4.2	1.6[16.7 µM]
C[C@@H]1CN([C@H](C)CO)C(=O)Cc2cc(NC(=O)C3CC3)ccc2O[C@@H]1CN(C)Cc1ccc(C(=O)O)cc1	-6.0	-10.5[16.7 µM]
COc1ccc(-c2cnc3c(c2)C(=O)N([C@H](C)CO)C[C@H](C)[C@@H](CN(C)Cc2ccc(C(=O)O)cc2)O3)cc1	13.9	28.2[16.7 µM]
Cc1cc(C(=O)Nc2cccc3c2O[C@@H](CN(C)S(=O)(=O)c2ccc(F)cc2)[C@H](C)CN([C@H](C)CO)C3=O)n(C)n1	-7.9	-35.4[16.7 µM]
CC(C)NC(=O)Nc1ccc2c(c1)C(=O)N(C)[C@H]1CC[C@H](CC(=O)NCC3CCCCC3)O[C@@H]1CO2	2.0	-3.7[16.7 µM]
COc1cccc(NC(=O)N[C@H]2CC[C@H](CC(=O)NCc3ccccn3)O[C@H]2CO)c1	1.3	-10.0[16.7 µM]
C[C@@H]1CN([C@H](C)CO)C(=O)c2cccc(NS(=O)(=O)c3ccc(F)cc3)c2O[C@H]1CN(C)S(=O)(=O)c1ccccc1	-4.2	3.5[16.7 µM]
COCCNC(=O)C[C@@H]1CC[C@H]2[C@H](COc3ccc(NC(=O)C4CCCC4)cc3C(=O)N2C)O1	10.5	14.0[16.7 µM]
C[C@@H]1CN([C@@H](C)CO)C(=O)Cc2cc(NS(C)(=O)=O)ccc2O[C@@H]1CN(C)S(C)(=O)=O	-2.4	-15.2[16.7 µM]
O=C(C[C@H]1C=C[C@@H](NC(=O)Nc2ccccc2)[C@H](CO)O1)NCc1ccccn1	-7.5	13.5[16.7 µM]
Cc1noc(C)c1NC(=O)N(C)C[C@H]1Oc2ccc(NC(=O)Nc3ccccc3)cc2CC(=O)N([C@@H](C)CO)C[C@@H]1C	3.4	0.6[16.7 µM]
O=C(CCN1CCCCC1)N[C@H]1CC[C@@H](CCNS(=O)(=O)c2ccccc2)O[C@H]1CO	5.6	6.0[16.7 µM]
C[C@H]1CN([C@@H](C)CO)C(=O)c2cc(C#Cc3ccccc3F)cnc2O[C@H]1CN(C)C	4.9	-7.3[16.7 µM]
COc1ccc(S(=O)(=O)N(C)C[C@H]2OCCCC[C@@H](C)Oc3ccc(NS(=O)(=O)c4ccccc4)cc3C(=O)N([C@H](C)CO)C[C@@H]2C)cc1	11.0	15.9[16.7 µM]
C[C@H](CO)N1C[C@H](C)[C@H](CN(C)C)Oc2ncc(C#CC3CC3)cc2C1=O	-3.9	-9.1[16.7 µM]
COCC(=O)N1[C@H](C#N)[C@H](c2ccc(C3=CCCC3)cc2)[C@@H]1CO	0.9	10.6[16.7 µM]
C[C@@H]1CN([C@@H](C)CO)C(=O)c2cc(NC(=O)CCC(F)(F)F)ccc2O[C@@H](C)CCCCO[C@@H]1CN(C)C(=O)Nc1ccc(F)cc1	-6.1	7.6[16.7 µM]
CNC[C@@H]1Oc2cc(C#CCN(C)C)ccc2S(=O)(=O)N([C@@H](C)CO)C[C@H]1C	40.8	-7.0[16.7 µM]
Cc1ccc(S(=O)(=O)Nc2ccc3c(c2)C(=O)N([C@H](C)CO)C[C@@H](C)[C@@H](CN(C)S(=O)(=O)c2ccc(F)cc2)OCCCC[C@H](C)O3)cc1	-9.6	-28.2[16.7 µM]
C[C@@H]1CN([C@@H](C)CO)C(=O)c2cccc(NS(=O)(=O)c3ccccc3)c2O[C@H]1CN(C)C(=O)Nc1ccccc1	25.1	26.5[16.7 µM]
C[C@H](CO)N1C[C@H](C)[C@H](CN(C)Cc2ccc(F)cc2)Oc2ncc(/C=C/c3ccccc3)cc2C1=O	1.5	-3.6[16.7 µM]
O=C(C[C@@H]1CC[C@H](NC(=O)c2ccccc2)[C@@H](CO)O1)NCCc1ccncc1	-5.7	22.9[16.7 µM]
C[C@@H]1CN([C@H](C)CO)C(=O)Cc2cc(N(C)C)ccc2O[C@H]1CN(C)C(=O)Nc1ccc(C(F)(F)F)cc1	0.5	4.3[16.7 µM]
CC(C)NC(=O)N(C)C[C@H]1Oc2cc(C#Cc3ccccn3)ccc2S(=O)(=O)N([C@H](C)CO)C[C@@H]1C	-2.3	-29.2[16.7 µM]
C/C=C/c1ccc2c(c1)O[C@@H](CN(C)C(=O)NC(C)C)[C@H](C)CN([C@H](C)CO)S2(=O)=O	2.7	-6.6[16.7 µM]
C[C@H]1CN([C@@H](C)CO)C(=O)c2cc(-c3cccc(C(=O)N(C)C)c3)cnc2O[C@@H]1CN(C)C(=O)Cc1ccccn1	4.9	7.7[16.7 µM]
O=C(N[C@@H]1CC[C@@H](CCn2cc(C3CC3)nn2)O[C@@H]1CO)c1cccnc1	3.7	-17.5[16.7 µM]
CNC[C@H]1Oc2ccc(NS(C)(=O)=O)cc2C(=O)N([C@@H](C)CO)C[C@H]1C	-28.0	4.9[16.7 µM]
NC(=O)[C@@H]1[C@H]2C(=O)O[C@H](c3ccccc3)[C@H](c3ccccc3)N2[C@H](c2ccc(OCCO)cc2)[C@@]12C(=O)Nc1ccccc12	22.2	-3.9[16.7 µM]
C[C@@H]1CN([C@@H](C)CO)C(=O)c2cc(C#CCN(C)C)cnc2O[C@@H]1CN(C)C(=O)Cc1cccnc1	-11.4	-7.3[16.7 µM]
CC(C)NC(=O)N[C@@H]1C=C[C@H](CC(=O)O)O[C@H]1CO	4.9	-6.0[16.7 µM]
COCCNC(=O)C[C@@H]1C[C@H]2c3cc(NS(C)(=O)=O)ccc3O[C@H]2[C@@H](CO)O1	6.6	5.6[16.7 µM]
CCC(=O)N1C[C@H](C)[C@H](OC)CN(C)C(=O)c2ccc(NS(C)(=O)=O)cc2OC[C@@H]1C	2.6	-2.1[16.7 µM]
CCS(=O)(=O)N1[C@H](C#N)[C@@H](c2ccc(C#CC(C)C)cc2)[C@@H]1CO	3.3	-12.0[16.7 µM]
C[C@H](CO)N1C[C@H](C)[C@H](CN(C)Cc2ccc(Oc3ccccc3)cc2)Oc2ccc(NC(=O)NC3CCCCC3)cc2CC1=O	-3.7	-16.7[16.7 µM]
COc1ccc(CN(C)C[C@H]2OCCCC[C@H](C)Oc3ccc(NS(=O)(=O)c4ccccc4)cc3C(=O)N([C@H](C)CO)C[C@H]2C)cc1	21.7	-4.7[16.7 µM]
COc1ccc(CN(C)C[C@H]2OCCCC[C@@H](C)Oc3ccc(NS(=O)(=O)c4c(C)noc4C)cc3C(=O)N([C@H](C)CO)C[C@@H]2C)cc1	-5.9	-6.3[16.7 µM]
COc1ccc(NC(=O)N(C)C[C@H]2Oc3ccc(NC(=O)Nc4ccc(C(F)(F)F)cc4)cc3C(=O)N([C@@H](C)CO)C[C@@H]2C)cc1	-7.7	-46.8[16.7 µM]
COc1cccc(-c2cnc3c(c2)C(=O)N([C@H](C)CO)C[C@H](C)[C@H](CN(C)C)O3)c1	0.8	-5.4[16.7 µM]
N#C[C@@H]1[C@@H](c2ccc(C3=CCCCC3)cc2)[C@H](CO)N1C(=O)c1ccccn1	1.0	12.9[16.7 µM]
C[C@@H]1CN([C@@H](C)CO)C(=O)c2cccc(NC(=O)C3CCOCC3)c2O[C@H]1CN(C)Cc1ccc(Oc2ccccc2)cc1	48.0	14.2[16.7 µM]
C[C@H](CO)N1C[C@H](C)[C@@H](CN(C)C(=O)Nc2ccc(F)cc2)OCCCC[C@H](C)Oc2ccc(NC(=O)NC3CCCCC3)cc2C1=O	-4.3	15.4[16.7 µM]
Cc1ccccc1S(=O)(=O)NCC[C@H]1CC[C@@H](NC(=O)C2CC2)[C@@H](CO)O1	-7.7	6.9[16.7 µM]
O=C(C[C@@H]1C[C@H]2c3cc(NC(=O)Nc4ccccc4)ccc3O[C@H]2[C@H](CO)O1)NCc1ccncc1	-2.6	20.2[16.7 µM]

Random excerpt: two records from the list.
SMILES	Yeast UUG start	HIV Env fusion
COc1ccc(CN(C)C[C@H]2OCCCC[C@H](C)Oc3ccc(NS(=O)(=O)c4ccccc4)cc3C(=O)N([C@H](C)CO)C[C@H]2C)cc1	21.7	-4.7[16.7 µM]
CC(C)NC(=O)N[C@@H]1C=C[C@H](CC(=O)O)O[C@H]1CO	4.9	-6.0[16.7 µM]

Reformatted: entries from further up.
CC(C)NC(=O)N[C@@H]1C=C[C@H](CC(=O)O)O[C@H]1CO
  Yeast UUG start = 4.9	HIV Env fusion = -6.0[16.7 µM]
CCS(=O)(=O)N1[C@H](C#N)[C@@H](c2ccc(C#CC(C)C)cc2)[C@@H]1CO
  Yeast UUG start = 3.3	HIV Env fusion = -12.0[16.7 µM]
C[C@H](CO)N1C[C@H](C)[C@@H](CN(C)C(=O)Nc2ccc(F)cc2)OCCCC[C@H](C)Oc2ccc(NC(=O)NC3CCCCC3)cc2C1=O
  Yeast UUG start = -4.3	HIV Env fusion = 15.4[16.7 µM]

New compounds follow
SMILES	Yeast UUG start	HIV Env fusion
COc1ccc(S(=O)(=O)Nc2ccc3c(c2)C(=O)N([C@H](C)CO)C[C@@H](C)[C@H](CN(C)S(=O)(=O)c2ccc(F)cc2)O3)cc1	-1.1	24.0[16.7 µM]
COC(=O)C[C@H]1CC[C@@H]2[C@@H](COc3ccc(NC(=O)c4ccc(OC)cc4)cc3C(=O)N2C)O1	6.9	10.5[16.7 µM]
Cc1ccc(S(=O)(=O)N(C)C[C@H]2OCCCC[C@@H](C)Oc3ccc(N(C)C)cc3C(=O)N([C@H](C)CO)C[C@H]2C)cc1	43.3	20.2[16.7 µM]
COc1ccc(-c2cnc3c(c2)C(=O)N([C@H](C)CO)C[C@@H](C)[C@@H](CN(C)C(=O)Cc2ccccn2)O3)cc1	-12.4	6.6[16.7 µM]
C[C@@H]1CN([C@@H](C)CO)C(=O)c2cc(-c3cncnc3)cnc2O[C@H]1CN(C)C(=O)c1ccccc1F	11.9	-6.1[16.7 µM]
C[C@@H]1CN([C@H](C)CO)S(=O)(=O)c2ccc(Br)cc2O[C@@H]1CN(C)C	0.3	6.4[16.7 µM]
C[C@H]1CN([C@@H](C)CO)C(=O)c2cc(-c3ccccc3)cnc2O[C@H]1CN(C)Cc1ccccc1	-2.3	-14.6[16.7 µM]
CCNC(=O)C[C@@H]1CC[C@@H]2[C@H](COc3ccc(NC(=O)Nc4cccc(Cl)c4)cc3C(=O)N2C)O1	-16.8	44.1[16.7 µM]
C[C@@H]1CN([C@@H](C)CO)C(=O)c2cc(NC(=O)Nc3ccc4c(c3)OCO4)ccc2O[C@@H]1CN(C)Cc1ccc(Oc2ccccc2)cc1	3.9	27.0[16.7 µM]
COc1ccc(CN(C)C[C@H]2Oc3c(NC(=O)c4ccncc4)cccc3C(=O)N([C@@H](C)CO)C[C@@H]2C)cc1	-1.3	16.0[16.7 µM]
CC(C)NC(=O)Nc1ccc2c(c1)CC(=O)N([C@@H](C)CO)C[C@H](C)[C@@H](CN(C)CC1CCCCC1)O2	-3.8	0.3[16.7 µM]
COc1ccc(S(=O)(=O)N(C)C[C@@H]2OCCCC[C@H](C)Oc3ccc(NS(=O)(=O)c4ccc(C)cc4)cc3C(=O)N([C@@H](C)CO)C[C@H]2C)cc1	18.5	-6.5[16.7 µM]
C[C@H]1CN([C@@H](C)CO)C(=O)c2cc(NS(=O)(=O)c3ccccc3)ccc2O[C@H]1CN(C)Cc1ccc(C(=O)O)cc1	17.8	-30.6[16.7 µM]
C[C@H](CO)N1C[C@H](C)[C@H](CN(C)CC2CCCC2)Oc2ncc(C#Cc3cccc(F)c3)cc2C1=O	-2.2	1.7[16.7 µM]
Cc1ccc(S(=O)(=O)N(C)C[C@@H]2OCCCC[C@H](C)Oc3ccc(NC(=O)Nc4ccc(C(F)(F)F)cc4)cc3C(=O)N([C@@H](C)CO)C[C@H]2C)cc1	-14.4	32.0[16.7 µM]
Cc1noc(C)c1NC(=O)N[C@@H]1CC[C@@H](CC(=O)NCCCN(C)C)O[C@@H]1CO	-17.3	-20.9[16.7 µM]
O=C(NCC[C@@H]1CC[C@@H](NC(=O)c2cccnc2)[C@H](CO)O1)Nc1ccc(F)cc1	1.0	1.5[16.7 µM]
C[C@H]1CCCCO[C@H](CN(C)C(=O)c2ccncc2)[C@@H](C)CN([C@@H](C)CO)C(=O)c2cc(NS(=O)(=O)c3ccc(F)cc3)ccc2O1	1.1	1.0[16.7 µM]
COc1ccc(NC(=O)N[C@@H]2CC[C@H](CCn3cc(-c4ccccc4F)nn3)O[C@H]2CO)cc1	-0.3	-1.7[16.7 µM]
COc1ccccc1NC(=O)N1C[C@H](O)COC[C@@H]2O[C@H](CC(=O)NCCc3ccncc3)CC[C@H]21	-2.2	2.1[16.7 µM]
C[C@@H]1CN([C@H](C)CO)C(=O)c2cc(-c3ccccc3F)cnc2O[C@@H]1CN(C)Cc1ccccc1F	-6.6	15.2[16.7 µM]
CCCC(=O)Nc1ccc2c(c1)OC[C@@H](C)N(C(=O)c1ccncc1)C[C@H](C)[C@@H](OC)CN(C)C2=O	6.2	13.1[16.7 µM]
C/C=C/c1ccc2c(c1)O[C@H](CN(C)C(=O)Nc1ccc(OC)cc1)[C@@H](C)CN([C@H](C)CO)S2(=O)=O	-4.6	-0.2[16.7 µM]
Cc1noc(C)c1S(=O)(=O)N(C)C[C@H]1Oc2ccc(NS(C)(=O)=O)cc2CC(=O)N([C@H](C)CO)C[C@H]1C	10.7	-15.0[16.7 µM]
COc1ccc(S(=O)(=O)Nc2ccc3c(c2)C(=O)N([C@H](C)CO)C[C@H](C)[C@H](CN(C)C(=O)Nc2ccc(C(F)(F)F)cc2)OCCCC[C@@H](C)O3)cc1	-18.6	-18.9[16.7 µM]
CNC(=O)C[C@H]1CC[C@@H]2[C@@H](COc3ccc(NC(=O)NC(C)C)cc3C(=O)N2C)O1	-18.2	-9.6[16.7 µM]
